Source: PubChem
BJeLR lethal: kills HRASV12-expressing BJeLR cells; BJeLR (HRASV12) viability, CellTiter-Glo ATP luminescence, 48 h; reference of the scale not given here; inhibition, % (no concentration beside the values); 300,000 tested, 0.17% active;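 active = replicate mean above 50%; inconclusive = above 50% but judged a plate artefact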;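 note: 50 nL library stock added to about 25 µL; numbers are from one replicate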
Sa ugtP lethal: growth inhibition of S. aureus ugtP deletion strain. 330,000 tested, 0.54% active. S. aureus RN4220 ugtP deletion, OD600 growth, 16 h; some inactives read as strong as hits. growth inhibition, % (no concentration beside the values);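 active = z-score under -3 and OD600 up to 0.15 on both plates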;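 note: plate controls were untreated wells for no effect and antibiotic for full effect; wells of about 80 µL received 100 nL stock; the first replicate is given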
Sa RN4220 lethal: S. aureus RN4220 growth inhibition. inhibition, % (concentration not given with the values). 330,000 tested, 0.33% active. OD600, 16 h;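 active = z-score of -3 or lower and OD600 up to 0.18 on both plates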;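 note: plate controls were untreated cells for no effect and reference antibiotic for full effect; stock transfer was 100 nL into about 80 µL; one replicate is shown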
PrP 5UTR inh: inhibition of PrP 5' UTR reporter expression; cell-based PrP 5' UTR mRNA reporter, plate reader; inhibition, % (test concentration not listed); 340,000 tested, 0.35% active; AID 488862;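 active = every replicate at 50% or more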;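 note: 0 = median of the neutral control wells; tested in H4 reporter cells; numbers are from one replicate; inactives centre near -14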
Mtb hypoxia rep: inhibitors of hypoxia-regulated fluorescent reporter in Mycobacterium tuberculosis | fluorescence inhibition, % (test concentration not listed) | 300,000 tested, 0.1% active | M. tuberculosis hypoxia-regulated fluorescent reporter, fluorescence | AID 1159583;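 active = 35 to 45% if threefold the growth effect, above 45% if 1.5-fold the growth effect; inactive = the rest, general growth blockers included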;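 note: wells of about 50 µL received 100 nL stock; 0% = vehicle wells and 100% = reference inhibitor wells; whole bacteria with a GFP reporter of the hypoxia response; strong numbers were not always called active; many hits fall short of the cut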
Bead autofluor: counter-screen for toxin protease inhibitors: compound fluorescence; compound autofluorescence counterscreen, microsphere flow cytometry; stronger effect = higher value; 360,000 tested, 3.1% active; fluorescence intensity (no concentration beside the values);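 active = at least 3 SD above the mean of all compounds, about 16000 in these data; inconclusive = too few beads counted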;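 note: 100 nL of 1 mM stock went into each well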
Mtb hypoxia rep growth: also measured in Mtb hypoxia rep; calls as there; growth inhibition, %; measured here: M. tuberculosis growth (absorbance);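 0% = vehicle and 100% = reference antibiotic; read after six days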
The depositor's hits bear a star; ? = inconclusive; nt = not tested or not shown.

SMILES	BJeLR lethal	Sa ugtP lethal	Sa RN4220 lethal	PrP 5UTR inh	Mtb hypoxia rep	Mtb hypoxia rep growth	Bead autofluor
O=C(NCCCN1CCOCC1)C(=O)N/N=C/c1ccccc1	-10	nt	nt	-13	nt	nt	2169
CCN(CC)C(=O)CSc1ncnc2sc(-c3ccccc3)cc12	-4	-2	2.8	-49	17	5	8743
C=CCn1c(SCC(=O)Nc2ccccc2)nc2scc(-c3cccs3)c2c1=O	2	9	11	3	nt	nt	3568
CC(=O)Nc1ccc(S(=O)(=O)NCC(=O)OCC(=O)N2CC(C)OC(C)C2)cc1 (stereo unspecified)	nt	3	5.3	1	3	1	3667
COc1ccc(C(=O)NCc2ccc3c(c2)OCO3)c(OC)c1	-6	2	2.9	-13	8	7	3291
O=Cc1c(Cl)nc2ccccn2c1=O	-5	5	3.8	-20	0	0	4448
O=C(c1ccc(F)cc1)c1ccc(CN2C(=O)c3ccccc3C2=O)o1	0	2	2.0	-14	9	-5	2491
COc1cccc(CN2CCN(C(=O)c3ccco3)CC2)c1OC	-2	7	2.4	-25	14	10	3468
CCN1CC2C3C(=O)N(Cc4ccccc4)C(=O)C3[C@](C)(C1=O)N2C(=O)c1ccc(Br)cc1 (stereo partly specified)	nt	2	4.6	nt	5	8	nt
c1ccc(OCc2nn3c(Cn4nnc5ccccc54)nnc3s2)cc1	0	9	3.6	-26	5	-4	15604
Cc1ccc(NC(=O)C2CCN(C(=O)c3ccc(Cl)cc3)CC2)nc1	1	4	2.9	-88	3	3	5514
Cc1oc(-c2ccccc2)cc1C(=O)Nc1cccc(C(=O)O)c1	11	-2	3.1	-10	5	9	11262
CC(/C=N\N1CCN(Cc2ccc(C)cc2)CC1)=C\c1ccccc1	-10	nt	nt	-7	nt	nt	2647
CC(=O)Nc1ccc(S(=O)(=O)N2CCN(C34CC5CC(CC(C5)C3)C4)CC2)cc1	-21	4	2.7	-14	nt	nt	3330
COC(=O)c1c(-c2cccc3ccccc23)csc1NC(=O)Cc1ccc(OC)c(OC)c1	13	-1	-2.8	-18	nt	nt	4584
N#Cc1cc2c(nc1SCC(=O)Nc1sc3c(c1C#N)CCC3)CCC2	33	-11	12	-65	22	11	2649
Cc1ccc(C)c(/C=C/C(=O)c2ccccc(=O)c2O)c1	37	-6	14	7	5	8	6859
CCCCn1c(N)c(N(CCOC)C(=O)CSc2nnc(-c3ccc(C(C)(C)C)cc3)n2N)c(=O)[nH]c1=O	-6	4	0.3	1	-12	1	6529
OCCN1CCN(C(=S)NCCc2ccccc2)CC1	-5	0	1.6	-8	17	8	nt
Cc1ccc(C(=NO)c2oc3c(C)c4oc(=O)cc(C)c4cc3c2C)cc1	nt	1	27	nt	0	2	nt
Cc1onc(NC(=O)NC(=O)c2c(F)cccc2Cl)c1Br	-5	0	1.3	-8	-5	-2	6025
CSC1=NC(C)(C)C=C(/C=C/c2c(Cl)cccc2Cl)N1	3	nt	nt	-5	nt	nt	3270
CN(C1CCCCC1)S(=O)(=O)c1cccc(C#N)c1	-5	-3	6.5	1	19	15	3422
O=C(O)Cc1coc(-c2ccc(F)cc2)n1	-6	0	2.5	-7	2	-1	3652
Cc1nc(N2CCN(C)CC2)c2sc(=S)n(C)c2n1	-9	2	-2.3	2	nt	nt	4354

Further structures.
SMILES	BJeLR lethal	Sa ugtP lethal	Sa RN4220 lethal	PrP 5UTR inh	Mtb hypoxia rep	Mtb hypoxia rep growth	Bead autofluor
CNS(=O)(=O)c1ccc(CCC(=O)N2CCN(c3ccccc3OC)CC2)cc1	5	7	3.0	-4	16	-1	4165
COc1ccc(CCNC(=O)c2ccc(NS(=O)(=O)c3ccc4[nH]c(=O)[nH]c4c3)cc2)cc1OC	-8	1	2.5	-13	-2	-5	4066
Cc1cc(C)c2nc(NNC(=O)c3cc(=O)c4ccccc4o3)sc2c1	4	-15	2.6	-33	-1	-3	5953
Cc1ccc(C(=O)NC(=Cc2ccccc2)C(=O)NCC2CCCO2)cc1 (stereo unspecified)	nt	6	8.2	nt	1	-1	nt
CCOCCCNC(=O)C(c1ccc(Cl)cc1)N(Cc1cccs1)C(=O)CNC(C)=O (stereo unspecified)	8	9	0.2	1	11	4	6784
COCCn1nnnc1C(c1cccc(OC)c1OC)N1CCN(C2CCCCC2)CC1 (stereo unspecified)	-2	9	3.7	-22	nt	nt	2280
O=C(NC1=NCCS1)c1cc2ccccc2o1	17	2	2.2	-14	-2	-2	20997*
CCCCn1c(N)c(N(CC(C)C)C(=O)C2CCCO2)c(=O)[nH]c1=O (stereo unspecified)	0	0	1.9	-12	2	-2	?
CCN(CC)S(=O)(=O)c1ccc(O)c(C(=O)OCC(=O)NC23CC4CC(CC(C4)C2)C3)c1	nt	0	9.2	-14	6	5	2837
CCOc1ccc(S(=O)(=O)N2CCCC(C(=O)N3CCN(CC)CC3)C2)cc1Cl (stereo unspecified)	-7	2	2.5	-13	2	-2	3217
C=C(C)CCOC(=O)C(CC(=O)O)NCc1ccco1 (stereo unspecified)	7	11	1.4	-29	7	-6	3869
O=C(O)CCCCCN1C(=O)CCC1=O	8	6	3.2	-19	nt	nt	3861
CCOC(=O)CC(NC(=O)c1ccc(C)cc1)c1ccc(OC)cc1 (stereo unspecified)	3	6	5.7	-20	5	-3	4286
OC(Cc1nc2ccccc2[nH]1)c1ccccc1Cl (stereo unspecified)	5	3	21	-66	1	7	5639
CC(C)(C)N=C1SCC(C)(C=NO)S1 (stereo unspecified)	nt	1	-1.9	nt	4	9	nt
CSc1nc(C)c2c(n1)N(c1ccc(F)cc1)CC2	-6	-5	4.9	-5	-3	6	2729
CC1(C)CC(=O)C2=C(C1)OC(N)=C([N+](=O)[O-])C2c1ccc(F)cc1 (stereo unspecified)	6	5	4.3	nt	8	10	5959
Cc1ccc(-c2nn3c(C)nnc3s2)cc1N	1	-6	2.6	-16	1	6	11214
N#C/C(N)=C(/C#N)N=Cc1cccc(Cl)c1	-2	4	9.3	-3	20	4	nt
COc1ccc(Nc2nc(-c3ccncc3)nc3ccccc23)cc1	0	16	-9.9	13	0	-9	3987
COc1ccc(-c2cc(C(F)(F)F)n3nc(C(=O)Nc4c(C)n(C)n(-c5ccccc5)c4=O)c(Cl)c3n2)cc1	7	-3	2.8	-14	7	-2	6511
COc1ccc(-c2csc(NC(=O)Cc3cccc4ccccc34)c2C(=O)O)cc1	0	18	14	-14	-7	3	4267
CCOC(=O)c1c(N)n(CCN2CCOCC2)c2nc3ccccc3nc12	-9	-1	-2.1	-12	3	-2	6203
COc1ccc(CNC(=O)C2CCC(CNS(=O)(=O)c3cccc4nsnc34)CC2)cc1 (stereo unspecified)	7	9	2.0	-12	13	7	5206
O=C(CCCn1c(=S)[nH]c2cc3c(cc2c1=O)OCO3)NC1CC1	-4	-4	5.4	-21	6	7	22975*

Reformatted as comma-separated lines: part of the list above
structure,BJeLR lethal,Sa ugtP lethal,Sa RN4220 lethal,PrP 5UTR inh,Mtb hypoxia rep,Mtb hypoxia rep growth,Bead autofluor
COc1ccc(CNC(=O)C2CCC(CNS(=O)(=O)c3cccc4nsnc34)CC2)cc1 (stereo unspecified),7,9,2.0,-12,13,7,5206
O=C(CCCn1c(=S)[nH]c2cc3c(cc2c1=O)OCO3)NC1CC1,-4,-4,5.4,-21,6,7,22975*

Next results.
SMILES	BJeLR lethal	Sa ugtP lethal	Sa RN4220 lethal	PrP 5UTR inh	Mtb hypoxia rep	Mtb hypoxia rep growth	Bead autofluor
CC(OC(=O)c1ccc(Br)o1)C(=O)NCC1CCCCC1 (stereo unspecified)	nt	-3	-2.3	-9	-8	-4	4677
O=C(NCc1ccccc1)c1onc(CSc2ccccc2)c1C(=O)NCC1CC1	-7	10	-1.1	-28	17	6	3718
Cc1cccc(NC(=O)c2cccc(S(=O)(=O)N3CCCCC3)c2)c1	-6	10	0.4	-34	12	8	3453
CC(Oc1ccccc1F)C(=O)NNC(=O)c1ccc(-n2cncn2)c([N+](=O)[O-])c1 (stereo unspecified)	nt	4	0.6	2	-4	11	5961
O=C(NC1CCCCCCC1)c1c(Cl)cccc1Cl	-1	30	9.8	-8	2	0	6806
CN(CC(=O)Nc1cccc(F)c1)CC(=O)Nc1ccccc1-c1ccccc1	nt	4	2.8	-22	10	11	4167
COc1cc(C)ccc1OCc1cc(C(=O)N(Cc2nccn2C)C(C)C)no1	-4	0	2.9	-120	-2	8	5801
CC(CN1CCCC1)OC(=O)c1cccc(F)c1 (stereo unspecified)	11	0	0.6	-28	-17	-1	3805
Cc1ccccc1NC(=O)c1cccc(S(C)(=O)=O)c1	11	8	2.9	-35	3	5	4707
COc1ccc(N2CCC(CNC(=S)Nc3ccc(C)cc3C)C2)cc1 (stereo unspecified)	23	1	4.3	-28	8	5	4361
CCN(CC(=O)Nc1ccc(NC(C)=O)cc1)C(=O)c1cccc(N2C(=O)c3ccccc3C2=O)c1	nt	11	4.7	-19	2	-5	3095
Cc1nc(NC(=O)C2CC3CCCC(C2)C3=O)sc1C (stereo unspecified)	5	-4	4.4	-29	nt	nt	4132
COc1ccc(NC2=C(C)C(=O)CC2)cc1	6	-3	3.3	-21	nt	nt	5729
S=C(Nc1ccc(CN2CCCCC2)cc1)Nc1cccc(Cl)c1Cl	4	-4	-3.4	-7	6	3	6051
CC1(C)CC(=O)C2=C(C1)N(CCN1CCOCC1)C1=C(C(=O)CC(C)(C)C1)C2c1ccc(Cl)c([N+](=O)[O-])c1	5	0	8.4	-35	-7	8	3284
CCOC(=O)C1=C(C)N(CCCC(=O)O)C(=O)NC1c1ccccc1OS(=O)(=O)c1ccccc1[N+](=O)[O-] (stereo unspecified)	-9	6	7.5	-11	0	-3	3041
COc1cc(CNc2ncc(-c3ccc(Br)cc3)n2C)cc(OC)c1OC	7	-4	-4.2	-1	-23	5	4145
CCn1nnc2cc(C(=O)Nc3cc(S(C)(=O)=O)ccc3Cl)ccc21	-3	-2	2.5	-15	5	1	7066
O=C(CCc1nc2ccccc2c(=O)[nH]1)NNC(=O)COc1ccccc1Cl	11	3	-0.1	-21	1	11	4333
Cc1ccc(C(C)C)c(OCCN2CCc3ccccc3C2)c1	-10	55	0.0	-7	14	3	4118
O=C1C2C3C=CC(CC3)C2C(=O)N1c1ccc(F)cc1 (stereo unspecified)	9	12	0.3	-11	10	8	3689
CCCc1nn2c(=O)cc(O)nc2s1	-3	-7	-1.3	-10	-9	9	2001
Cc1ccn2c(Nc3ccccc3C)c(-c3cccnc3)nc2c1	1	11	3.6	-4	8	2	nt
CN(CC(=O)NC1CCN(Cc2ccccc2)CC1)S(=O)(=O)c1ccc(Cl)cc1	nt	5	5.7	-10	4	2	4359
Cc1cc(O)c(C(=O)Nc2cccc(Cl)c2)c(=O)n1C	-14	-8	-4.4	-91	2	2	5282

Next part; it opens with the three that closed the last part.
SMILES	BJeLR lethal	Sa ugtP lethal	Sa RN4220 lethal	PrP 5UTR inh	Mtb hypoxia rep	Mtb hypoxia rep growth	Bead autofluor
Cc1ccn2c(Nc3ccccc3C)c(-c3cccnc3)nc2c1	1	11	3.6	-4	8	2	nt
CN(CC(=O)NC1CCN(Cc2ccccc2)CC1)S(=O)(=O)c1ccc(Cl)cc1	nt	5	5.7	-10	4	2	4359
Cc1cc(O)c(C(=O)Nc2cccc(Cl)c2)c(=O)n1C	-14	-8	-4.4	-91	2	2	5282
Nn1c(SCc2ccc(F)cc2)nnc1-c1cccnc1	6	-1	5.2	-23	-6	3	nt
CCN(CC)CCN1C(=O)c2oc3ccccc3c(=O)c2C1c1ccccc1 (stereo unspecified)	-5	2	6.2	-7	19	5	11060
Oc1ccccc1/C=N/n1c(COc2ccccc2)n[nH]c1=S	2	nt	nt	-47	nt	nt	3977
CCOCC(O)CNC(=O)c1ccc(OC2CCN(C(=O)c3cccnc3)CC2)cc1 (stereo unspecified)	8	6	0.4	-1	-1	-2	4740
COc1ccc(OCCC(=O)OCC(=O)NCc2ccc(F)cc2)cc1	-13	14	6.0	-22	10	10	3985
O=C(NCCN1CCOCC1)c1c(F)c(F)c(F)c(F)c1F	2	-1	5.2	-18	1	10	9588
COCCN(C(=O)CSc1nnc(C)n1-c1ccccc1)c1c(N)n(Cc2ccccc2)c(=O)[nH]c1=O	0	2	3.4	-23	12	6	2092
Cc1ccc(NC(=O)c2ccc(Cn3cc(Br)cn3)o2)cc1	6	7	10	-40	1	2	3212
CC(=O)Nc1cccc(NC(=O)C2CC3CCC2C3)c1 (stereo unspecified)	-8	2	6.9	6	4	4	8275
Cc1cc(NC(=O)c2ccc(NC(=O)C3CC3)cc2)no1	2	4	3.2	-15	3	-2	4503
O=C(CC1C(=O)NCCN1Cc1ccccc1)NCCC1=CCCCC1 (stereo unspecified)	1	7	-1.7	-18	4	4	5316
